High-throughput results as filed in PubChem BioAssay.
StopGo RLuc: lowers the Renilla signal of an FMDV 2A StopGo reporter. HEK cells with a luciferase reporter of 2A StopGo recoding. Potency, µM (top dose mostly 57.5 µM), inactives show at the top dose signal change, negative = less light. actives 0.32% (n = 120,000). AID 1745857; active means well fitted falling curve with a large enough effect; inconclusive means small, poorly fitted or top-dose-only effect; inactive means no such curve, though single readings can be large or run the other way; further: nearly all actives have a fitted effect of over 55% in size; overnight with compound
StopGo FLuc: lowers the firefly signal of an FMDV 2A StopGo reporter | HEK cells with a luciferase reporter of 2A StopGo recoding | Potency, µM (top dose mostly 57.5 µM), for inactives: at the highest dose signal change, negative = less light | actives 0.23% (n = 120,000) | AID 1745856; active = well fitted falling curve with a large enough effect; inconclusive = small, poorly fitted or top-dose-only effect; inactive = no such curve, though single readings can be large or run the other way; further: nearly all actives have a fitted effect of over 60% in size; overnight with compound
Numbers without * were called inactive; ? = inconclusive; & = joins results of further samples; [ ] = another dose, or the depositor's remark. On the % scale 0 is the no-effect control and ±100 the full control effect; potency means the concentration at half of the fitted maximal effect.

SMILES	StopGo RLuc	StopGo FLuc
Cc1c(CC(=O)NCc2ccccc2)c(=O)oc2c(C)c(O)ccc12	64%&-2%[activator]	62%&36%[activator]
CCN(CC)Cc1nccn1-c1ccc([N+](=O)[O-])cc1C(=O)c1ccccc1Cl	-15%	-17%
Cc1ccc(/C=C/c2onc(C)c2S(=O)(=O)N2CCC(C(=O)N3CCOc4ccccc43)CC2)cc1	-3%	-1%
Cc1ccccc1NC(=O)CSc1nc2ccccc2c2nc(CCn3c(C)nc4ccccc43)nn12	-9%	-14%
COc1ccc(-c2oc3ncn4nc(COc5ccccc5C)nc4c3c2-c2ccc(OC)cc2)cc1	0%	1%
CCCc1nc(SC)ncc1C(=O)NCCc1ccc(Cl)cc1	20%	0%
COc1ccc(-n2c(=O)c3c(C)c(C)sc3n(CC(=O)NCc3ccc(C)cc3)c2=O)c(OC)c1	10%	55%[activator]
Clc1ccc(Nc2ncnc3c2oc2ccc(Br)cc23)cc1	-6%	12%
Cc1ccc(N(C)S(=O)(=O)c2cccc(C(=O)NC3CC(C)(C)NC(C)(C)C3)c2)cc1	1%	-21%
CC(Oc1ccccc1Cl)C(=O)NCc1csc(-c2ccccc2)n1 (stereo not given)	-17%	?
Cc1ccc(OC(=O)c2snnc2C)cc1C	-5%	2%
CC(C)C(NC(=O)c1ccccc1Cl)c1nnc(SCC(=O)c2ccccc2)n1C (stereo not given)	38%[activator]	12%
N#C/C(=C/c1ccccc1OCc1ccccc1)c1ccccc1F	-3%	5%
Cc1ccc2c(c1)-c1onc(C(=O)N3CCN(c4ccc(Cl)cc4)CC3)c1CO2	0%	9%
COc1ccc(-c2nnn3c2nc(N2CCCC(C)C2)c2ccccc23)cc1 (stereo not given)	-14%	-14%
CCC(C)N1CCN(C(=O)c2cccc(Cl)c2)CC1 (stereo not given)	14%	6%
O=C(NCCc1csc(-c2ccc(F)cc2)n1)C(=O)Nc1ccc(Cl)cc1	-11%	-12%
O=C(CSC1CCc2ccccc2NC1=O)Nc1ccc(CCO)cc1 (stereo not given)	0%	11%
CCCCNC(=O)Nc1ccc2c(c1)N(C)C(=O)c1ccccc1S2	74%[activator]	-24%
CC(OC(=O)c1ccc(O)cc1)C(=O)C12CC3CC(CC(C3)C1)C2 (stereo not given)	-5%	77%[activator]
CCS(=O)(=O)c1ncc(Cl)c(C(=O)Nc2ccccc2)n1	?	?
O=C1CC(c2ccc(OCc3ccc(F)cc3)cc2)c2cn[nH]c2N1 (stereo not given)	12%	101%[activator]
N#Cc1nc(COc2ccc(F)cc2)oc1NCc1ccco1	7%	60%[activator]
CCOCCCNC(=O)Cn1nc(CC)n2c(cc3c(OC)cccc32)c1=O	5%	-8%
Cc1ccc(-c2nnc(Nc3ccc(Cl)c(Cl)c3)c3ccccc23)cc1S(=O)(=O)NCCO	222%[activator]	-18%
Cc1nn(C)c(C)c1NC(=O)c1nn(C)cc1Br	-15%	1%
COc1ccc(CN(C(=O)c2cccc(C#N)c2)C2CC2)cc1	24%	0%
Cc1cc(NC(=O)CSc2nc(-c3ccccc3F)nc3c2c(=O)n(C)c(=O)n3C)no1	-8%	-5%
CC(C)c1ccc(C2NC(=O)c3c(sc4c3CCN(C)C4)N2)cc1 (stereo not given)	1%	5%
Cc1c(-c2cc(C(F)F)c3c(C4CC4)nn(C)c3n2)cnn1C	33%[activator]	157%[activator]
C/C(=N/Nc1ccc(S(N)(=O)=O)cc1[N+](=O)[O-])c1ccc(Cl)cc1Cl	-15%	-3%
O=C(Nc1nc(-c2ccco2)cs1)c1ccccc1Br	4%	57%
CCOC(=O)c1cc(OC(=O)c2ccc(OC)cc2)n(-c2ccccc2)n1	-1%	287%[activator]
Cc1ccc(CNC(=O)CCC(=O)N2Cc3ccccc3Oc3ncccc32)cc1	-10%	15%
COc1ccc(NC(=O)c2sc3ncnc(N(C)c4ccccc4)c3c2C)cc1Cl	-12%	-2%
Cc1ccc(CCNC(=O)c2cc3cc(S(=O)(=O)N4CCCCC4)ccc3n2C)cc1	-9%	-13%
Cc1cccc(C(=O)Nc2cccc(OCc3cc(=O)n4cccc(C)c4n3)c2)c1	8%	-18%
COc1ccc(Cl)cc1NC(=O)c1sc2nc3c(cc2c1N)N1CCC3CC1	5%	-6%
O=C(C1CCN(c2ncnc3c2nc2n3CCCCC2)CC1)N1CCN(c2ccc(F)cc2)CC1	4%	-3%
O=C(CCc1ncc(-c2ccccc2)o1)NCC(c1ccccc1)N1CCCC1 (stereo not given)	-24%	16%

Entries listed so far that have fluorine (7):
SMILES	StopGo RLuc	StopGo FLuc
N#C/C(=C/c1ccccc1OCc1ccccc1)c1ccccc1F	-3%	5%
O=C(NCCc1csc(-c2ccc(F)cc2)n1)C(=O)Nc1ccc(Cl)cc1	-11%	-12%
O=C1CC(c2ccc(OCc3ccc(F)cc3)cc2)c2cn[nH]c2N1 (stereo not given)	12%	101%[activator]
N#Cc1nc(COc2ccc(F)cc2)oc1NCc1ccco1	7%	60%[activator]
Cc1cc(NC(=O)CSc2nc(-c3ccccc3F)nc3c2c(=O)n(C)c(=O)n3C)no1	-8%	-5%
Cc1c(-c2cc(C(F)F)c3c(C4CC4)nn(C)c3n2)cnn1C	33%[activator]	157%[activator]
O=C(C1CCN(c2ncnc3c2nc2n3CCCCC2)CC1)N1CCN(c2ccc(F)cc2)CC1	4%	-3%

Further results follow.
SMILES	StopGo RLuc	StopGo FLuc
COc1ccc(NC(=O)Cn2cnc3c(nnn3Cc3ccc(C)cc3)c2=O)c(OC)c1	-1%	-4%
CC(C)NC(=O)C1CCN(C(=O)N2CC(C)Oc3ccccc32)CC1 (stereo not given)	-9%	-2%
COc1ccc(Cl)cc1-c1nc(SCC(=O)NC(C)(C)C)n[nH]1	7%	8%
COc1ccc(Cl)cc1NC(=O)CSCc1ccc(Br)cc1	19%	12%
O=C(Nc1nc2ccccc2[nH]1)c1cccc(S(=O)(=O)N2CCc3ccccc32)c1	?	-7%
Cc1ccccc1Nc1nc(NCc2ccco2)nc2c1cnn2-c1ccccc1	13%	1%
COc1cccc(/C=N/O)c1OC	5%	6%
COc1ccc(OCCNC(=O)Cc2c[nH]c3ccccc23)cc1	3%	4%
Cc1ccccc1CCNC(=O)c1ccc(NC(=O)N2CC(C)Sc3ccccc32)cc1 (stereo not given)	-7%	72%[activator]
CCOc1ccc(Nc2oc(-c3ccc(COc4ccccc4C)o3)nc2C#N)cc1	-7%	2%
Cc1ccc(Cl)cc1N1CCN(c2ncnc3c2nc2n3CCCCC2)CC1	-2%	2%
COc1cccc(NC(=O)Cn2c(=O)n(CCC(=O)NCCc3ccc(Cl)cc3)c(=O)c3ccccc32)c1	-5%	-18%
Cc1ccc(NC(=O)N2CCC(c3ccccc3)C2)cc1C (stereo not given)	6%	97%[activator]
Cc1ccc(-n2ncc(C(=O)NCCc3c[nH]c4ccccc34)c2C2CCN(C(=O)OC(C)(C)C)CC2)cc1C	-24%	?
COc1cccc(NC(=O)Cn2cc(C(=O)c3ccccc3)c3ccccc32)c1	-17%	-13%
CCOc1ccc(C(C)NC(=O)Cc2nn(C)c(=O)c3ccccc23)cc1 (stereo not given)	?	?
CCC1CCCCN1CCCNC(=O)c1ccc2c(c1)N(Cc1ccc(Cl)cc1)C(=O)c1ccccc1S2(=O)=O (stereo not given)	25%	0%
Cn1c(NCCCO)nc2c1c(=O)n(Cc1ccc(Br)cc1)c(=O)n2C	-9%	-3%
CCn1cc(C(=O)N2CCN(c3ccccc3)CC2)c(=O)c2cc(S(=O)(=O)N(C)C)ccc21	10%	-13%
Cc1ccccc1-c1nc(S(=O)(=O)c2ccccc2)c(NCCN2CCOCC2)o1	24%	3%
COC(=O)C12C3CCC4C5C3C1C5(C(=O)OC)C42 (stereo not given)	0%	5%
COc1ccc2oc(=O)c(C(=O)N(C)C3CCCCC3)cc2c1	18%	17%
COc1ccc(OC)c2c1cc(C(=O)NCCC(=O)Nc1ccc3c(c1)OCCO3)n2C	-5%	70%[activator]
Cc1cccc([N+](=O)[O-])c1NC(=O)COc1ncnc2ccccc12	-12%	70%[activator]
NC(N)=NC(N)=Nc1ccccc1Cl	8%	16%
COc1ccc(-c2noc(-c3ccc(N4CCN(C)CC4)c([N+](=O)[O-])c3)n2)cc1OC	-9%	84%[activator]
NC(=O)c1cc(Cc2ccccc2)sc1NC(=O)c1cccnc1	3%	130%[activator]
COc1ccc(/C=C(\NC(=O)c2ccc(OC)cc2)C(=O)OCCC(C)C)cc1	112%[activator]	0%
Cc1cccc(N2CCN(S(=O)(=O)c3cc(Cl)ccc3Cl)CC2)c1C	-3%	2%
CCOC(=O)c1oc2cc(OC(C)=O)ccc2c(=O)c1-c1ccc(OC)cc1	7%	18%
CCOC(=O)Cn1c(=O)n(CC2CCCO2)c2nc(-c3ccccc3F)nc(C(N)=O)c21 (stereo not given)	12%	11%
CCOc1ccc(CNC(=O)c2ccccc2NC(=O)c2nsc3ccccc23)cc1	5%	70%[activator]
CC(COc1ccc([N+](=O)[O-])cc1Cl)CN1CCC(C(O)(c2ccccc2)c2ccccc2)CC1 (stereo not given)	-10%	-15%
CC1Cc2cc(S(N)(=O)=O)ccc2N1CC(=O)Nc1ccc(Cl)cc1F (stereo not given)	20%	0%
CCN(CC)C(=O)CSc1nc(-c2ccccc2F)nc2c1Cc1c(CO)cnc(C)c1O2	9%	-1%
COC(=O)c1c(C)[nH]c(C(=O)C(C)OC(=O)c2c(F)cccc2F)c1C (stereo not given)	28%	0%
CC(NC(=O)CSc1ccc(Br)c2cccc(Cl)c12)c1ccccc1 (stereo not given)	16%	22%
CC1CCC(C(C)C)/C(=N/NC(N)=O)C1 (stereo not given)	-4%[1.06 µM]	-2%
Cc1oc2cc(OCC(=O)Nc3ccc(F)cc3F)ccc2c(=O)c1Oc1ccccc1F	6%	11%
CC(C)c1nnc(SCC(=O)NC(C)C(C)C)o1 (stereo not given)	-4%	-5%

Pulled one by one from above (two):
SMILES	StopGo RLuc	StopGo FLuc
COc1ccc(/C=C(\NC(=O)c2ccc(OC)cc2)C(=O)OCCC(C)C)cc1	112%[activator]	0%
CC(COc1ccc([N+](=O)[O-])cc1Cl)CN1CCC(C(O)(c2ccccc2)c2ccccc2)CC1 (stereo not given)	-10%	-15%

Additional records
SMILES	StopGo RLuc	StopGo FLuc
CCOc1ccc2c(c1)cc(C(=O)Nc1ccc(F)cc1)n2C	4%	4%
COc1ccc(S(=O)(=O)N2CCCCC2)cc1NC(=O)c1ccc(F)cc1	8%	0%
O=C(Cc1ccc(-c2ccccc2)cc1)Nc1ccccc1C(F)(F)F	15%	45%[activator]
O=C(CNC(=O)C1CC1)NC(c1ccccc1)c1cc2ccccc2o1 (stereo not given)	201%[activator]	50%[activator]
COCC(=O)Oc1ccc2oc3ccccc3c2c1	9%	0%
CC(=O)c1cccc(NS(=O)(=O)c2cc(-c3cnc(C4CC4)o3)ccc2C)c1	-1%	?
c1ccc2c(Nc3nc(N4CCOCC4)c4ccccc4n3)cccc2c1	?	?
CCCNC(=O)c1ccc2c(c1)nc1n2CCCCC1	-4%	54%[activator]
Clc1ccc(CSCCSc2nc3ccccc3s2)cc1	4%	79%[activator]
CC(C)(Oc1ccc(Cl)cc1)C(=O)Nc1ccc2oc(=O)ccc2c1	-3%	-4%
Cc1ccc(Cl)c2sc(N3CCN(C(=O)C4CC4)CC3)nc12	8%	-3%
O=C(CN1C(=O)CCSc2ccccc21)Nc1ccc(C(F)(F)F)cc1	45%[activator]	0%
Oc1c(C(c2ccccc2Cl)N2CCCC2)sc2nc(-c3ccco3)nn12 (stereo not given)	21%	-12%
Cc1cccc(-c2nc(CSCC(=O)N3CCN(c4ccccc4)CC3)c(C)o2)c1	?	-13%
O=C(COc1ccccc1F)NC1CC(=O)N(c2ccc3c(c2)OCCO3)C1 (stereo not given)	-11%	-23%
Cc1nc(-c2ccccc2)sc1C(=O)Nc1ccc2[nH]c(=O)[nH]c2c1	4%	15%
CC(=O)Nc1ccc(C(=O)C(C)OC(=O)C23CC4CC(CC(C4)C2)C3)cc1 (stereo not given)	24%	-3%
COc1ccc2c(=O)c(-c3ccc(Br)cc3)c(C(F)(F)F)oc2c1	3%	75%[activator]
Cc1ccccc1Cn1c(CN2CCC(C(=O)NCCc3ccccc3)CC2)cc2ccccc21	-9%	4%
CCc1ccc2ncc3c(-c4ccc(C)cc4)nn(CC(=O)NCc4ccccc4)c3c2c1	-14%	-10%
CCc1cccc(CC)c1NC(=O)C(CC)n1nc(C)n2c(cc3cc(C)ccc32)c1=O (stereo not given)	6%	18%
COc1ccccc1CNC(=O)COC(=O)c1nn(CC(C)C)c(=O)c2ccccc12	-4%	-7%
Cc1ccc(NC(=O)C(=O)NCCN2CCN(C(=O)c3ccc(C(C)(C)C)cc3)CC2)cc1	-21%	-8%
Cc1ccc(-c2cnc(CCC(=O)Nc3ccccc3F)o2)cc1	16%	0%
CN1CCN(CCCNC(=O)c2cnn(-c3ccccc3)c2C2CCN(C(=O)OC(C)(C)C)CC2)CC1	-12%	-14%
Cc1ccc(OCCCCc2c(C)n[nH]c2C)c(C(C)(C)C)c1	0%	0%
CCCOc1ccc(CNC(=O)CCCn2nc(C)c3sc4ccccc4c3c2=O)cc1	57%[activator]	-20%
Cc1cccc(CSCC(=O)Oc2ccc(-c3ccc(I)cc3)cc2)c1	23%	172%[activator]
COC(=O)c1cnn(-c2ccc(C(=O)Nc3ccc(OC(F)(F)F)cc3)cc2)c1N	?	-25%
COc1ccc(NC(=O)COCc2cc(-c3ccco3)on2)cc1	32%[activator]	38%[activator]
COc1ccccc1N1CCN(c2nc3ccccc3n3cnnc23)CC1	-6%	6%
CC(C)c1ccc(NC(=O)C2CCCN(S(=O)(=O)c3cccc4cccnc34)C2)cc1 (stereo not given)	7%	-16%
O=C(O)c1ccc(/C=C/C(=O)c2cccs2)cc1	16%	144%[activator]

Hits appear at their usual frequency. Share with any hit: about 0.53%.
